Mtb MenB inh: Mtb MenB enzyme inhibition; P9WNP5; MenB enzyme assay, absorbance read-out; some hits fall short of the stated cut; inhibition, %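 (about 12 µg/mL by stock and volumes)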; 0.43% of 100,000 active;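 active = mean of two replicates above 30%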;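 note: 0% = no compound and 100% = wells with inactive enzyme; the first replicate is given; strong numbers were not always called active; inactives centre near -10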
Polio RdRp inh: poliovirus RNA polymerase inhibition; poliovirus polymerase elongation, fluorescence polarization; active compounds read low; % elongation, % (compound at 16.7 µg/mL); 0.66% of 150,000 active; AID 588519; in the data active = % elongation below about 90%; note: some results filed as inactive read as strong as hits
Target sequence (P03300 1749-2209 limits assumed): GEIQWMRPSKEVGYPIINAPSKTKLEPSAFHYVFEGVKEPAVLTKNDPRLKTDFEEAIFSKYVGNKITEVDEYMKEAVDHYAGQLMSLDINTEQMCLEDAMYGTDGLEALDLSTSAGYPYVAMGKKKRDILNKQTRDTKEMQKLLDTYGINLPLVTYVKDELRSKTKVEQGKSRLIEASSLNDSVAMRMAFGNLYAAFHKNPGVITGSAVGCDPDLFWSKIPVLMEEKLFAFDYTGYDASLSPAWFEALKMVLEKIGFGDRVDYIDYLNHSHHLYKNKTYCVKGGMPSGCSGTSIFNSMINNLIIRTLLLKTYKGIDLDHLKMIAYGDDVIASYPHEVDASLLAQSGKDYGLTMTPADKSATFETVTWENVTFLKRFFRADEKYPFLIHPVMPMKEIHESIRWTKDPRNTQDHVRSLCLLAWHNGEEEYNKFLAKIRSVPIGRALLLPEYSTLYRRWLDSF
MbtI inh: blocks the Mycobacterium tuberculosis siderophore enzyme MbtI; inhibition, %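 (about 17 µg/mL by stock and volumes)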; purified MbtI enzyme, fluorescence intensity read-out; 0.89% of 100,000 active; P9WFX0; AID 493033;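 active = above 50% in both replicates, above 80% if mildly self-fluorescent; inactive = the rest, strongly fluorescent compounds included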;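 note: 0% = mean of negative and 100% = mean of positive controls; one replicate is shown; some compounds called inactive have numbers as strong as hits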
Target sequence (P9WFX0 whole entry, looked up): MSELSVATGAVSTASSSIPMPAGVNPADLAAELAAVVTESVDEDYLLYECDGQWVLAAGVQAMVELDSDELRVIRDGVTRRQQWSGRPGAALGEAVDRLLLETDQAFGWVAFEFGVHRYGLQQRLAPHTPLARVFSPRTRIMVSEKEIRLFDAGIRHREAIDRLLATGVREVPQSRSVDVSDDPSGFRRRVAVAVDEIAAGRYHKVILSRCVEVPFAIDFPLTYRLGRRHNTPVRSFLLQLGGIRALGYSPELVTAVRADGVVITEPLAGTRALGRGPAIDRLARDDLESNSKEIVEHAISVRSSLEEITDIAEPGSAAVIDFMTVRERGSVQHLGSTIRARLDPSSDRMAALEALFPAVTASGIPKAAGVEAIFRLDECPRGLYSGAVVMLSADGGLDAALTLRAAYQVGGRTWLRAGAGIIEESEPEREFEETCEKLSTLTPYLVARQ
Polio RdRp inh intensity: second read-out of Polio RdRp inh, no call of its own (marks repeat the call); % elongation; measured here: total intensity read-out; formula for this scale not given here;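 total fluorescence in place of polarization; lower means less elongation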
The depositor's hits bear a star; / = no result given.

canonical_smiles | Mtb MenB inh | Polio RdRp inh | Polio RdRp inh intensity | MbtI inh
COc1ccc(CCNC(=O)CC(c2ccccc2)c2cccc(C)c2O)cc1OC (configuration not stated) | -5 | 102 | 103 | -15
CC1CCCC(C)N1C(=O)NC1CCCCC1 (configuration not stated) | -29 | 103 | 103 | /
CCn1c(-c2cc(C(=O)c3ccccc3O)c[nH]2)nc2ccccc21 | -56 | 43 | 247 | -4
Cn1nnnc1SCSc1nnnn1C | 13 | 101 | 102 | -5
COC(=O)CNC(=O)c1ccc(NC(=O)Nc2cccc(C)c2)cc1 | -12 | 102 | 103 | 4
CC1CCc2c(sc(NC(=O)c3ccccc3)c2C(=O)N2CCCCC2)C1 (configuration not stated) | 0 | 107 | 105 | /
CN1c2ccccc2-c2nc3ccccc3n2C1c1cccs1 (configuration not stated) | 3 | 101 | 100 | 116
COc1ccc2c(C)cc(Cl)nc2c1 | / | 101 | 104 | -4
COc1ccc(/C=C/C(=O)NCc2ccccc2)cc1 | -13 | 102 | 104 | /
COc1ccc(-n2cc(C(=O)NCCCN3CCCC3=O)nn2)cc1 | -6 | 101 | 103 | -20
COC(=O)c1cn(CCCOc2ccccc2OC)c2ccccc12 | -25 | 104 | 104 | /
Cc1csc(=O)n1CCC(=O)OCc1nnc(-c2ccccc2)o1 | -6 | 104 | 103 | -3
Cc1ccc(S(=O)(=O)Nc2cc(Sc3ncn[nH]3)c(O)cc2C)cc1 | 3 | 111 | 112 | 54*
COC(=O)c1ccc(CSCc2ccc(C(=O)OC)o2)o1 | -38 | 102 | 103 | -5
COc1cn(-c2ccccc2)nc1C(=O)NCc1ccccc1CN1CCCC1 | -24 | 97 | 95 | 101
O=C(OCc1nnc(-c2ccccc2)o1)C1(c2ccc(Cl)cc2)CCCC1 | -7 | 99 | 96 | -2
COc1ccc(OC)c(S(=O)(=O)Nc2cccc(-c3cn4c(n3)SCC4)c2)c1 | -16 | 103 | 105 | -9
Cn1c2ccccc2n2c(=O)cc(-c3ccccc3)c(C#N)c12 | 2 | 94 | 104 | 8
O=S(=O)(NCC(c1cccs1)N1CCc2ccccc21)c1ccccc1 (configuration not stated) | -21 | 104 | 105 | -5
CCc1cc(=O)oc2cc(OCC(=O)N3CCCc4ccccc43)ccc12 | / | 101 | 95 | 0
CC(C)[C@H](NC(N)=O)C(=O)Nc1ccc(Oc2ccccc2)cc1 | -12 | 103 | 104 | -7
C=CCNC(=O)C(C)Sc1ccc(C)cc1 (configuration not stated) | -7 | 103 | 103 | -3
Cc1ccc2cccc(O)c2n1 | -6 | 104 | 104 | -18
O=C(CC1Nc2c3ccccc3nc(=S)n2C1=O)NCc1ccccc1 (configuration not stated) | -16 | 102 | 104 | 16
Cc1cnc(C(=O)N(CC(C)C)c2c(N)n(CC(C)C)c(=O)[nH]c2=O)cn1 | -8 | 101 | 96 | -5
CCNc1sc(S(C)(=O)=O)nc1S(=O)(=O)c1ccc(Cl)cc1 | 2 | 103 | 104 | 5
COc1ccc(CN=Cc2ccnc(SCc3ccc(Cl)cc3Cl)n2)cc1 | 9 | 111 | 117 | -16
CCCCN(CC)C(=O)Cn1c(=O)n(Cc2ccccc2Cl)c(=O)c2cc(OC)c(OC)cc21 | 5 | 102 | 97 | 5
CCc1cccc2c(C(=O)Cn3nc(C)c(C)c(C#N)c3=O)c[nH]c12 | -9 | 114 | 88 | 0
Cn1c(=N)n(CC(O)c2ccco2)c2ccccc21 (configuration not stated) | -19 | 103 | 104 | -2

Of the compounds above, these have a halogen.
canonical_smiles | Mtb MenB inh | Polio RdRp inh | Polio RdRp inh intensity | MbtI inh
COc1ccc2c(C)cc(Cl)nc2c1 | / | 101 | 104 | -4
O=C(OCc1nnc(-c2ccccc2)o1)C1(c2ccc(Cl)cc2)CCCC1 | -7 | 99 | 96 | -2
CCNc1sc(S(C)(=O)=O)nc1S(=O)(=O)c1ccc(Cl)cc1 | 2 | 103 | 104 | 5
COc1ccc(CN=Cc2ccnc(SCc3ccc(Cl)cc3Cl)n2)cc1 | 9 | 111 | 117 | -16
CCCCN(CC)C(=O)Cn1c(=O)n(Cc2ccccc2Cl)c(=O)c2cc(OC)c(OC)cc21 | 5 | 102 | 97 | 5

The list goes on:
canonical_smiles | Mtb MenB inh | Polio RdRp inh | Polio RdRp inh intensity | MbtI inh
O=C1C=CC(=O)N1c1cccc2ccccc12 | / | 101 | 107 | 89*
COc1ccc2oc(=O)c(C(=O)OC3CCCCC3)cc2c1 | -2 | / | / | -10
NC(=O)c1cc2ccccc2o/c1=N\NC(=O)c1ccccc1O | -1 | 99 | 102 | 1
N/C(COc1ccc2nonc2c1)=N\OC(=O)c1ccc(Cl)cc1 | -20 | 103 | 93 | 6
O=c1oc2ccccc2c2c1ncn2CCCN1CCOCC1 | -1 | 102 | 104 | 12
CCNS(=O)(=O)c1cc(-c2nnc(Nc3ccc(F)cc3)c3ccccc23)ccc1C | -4 | 98 | 114 | 5
COC(=O)C(=NNc1cccc(Cl)c1)C(=O)OC | 3 | 102 | 101 | 6
O=C(COC(=O)c1nc(-c2ccccc2)n(-c2ccccc2)n1)NCC1CCCO1 (configuration not stated) | -7 | 100 | 102 | 8
Cc1ccc(C)c(SCC(=O)OCC(=O)c2ccco2)c1 | -2 | 96 | 96 | 9
COc1ccc2c(COC(=O)c3cncc(Br)c3)cc(=O)oc2c1 | -1 | 102 | 112 | -26
Cc1cc(-c2nc(-c3ccnn3S(=O)(=O)c3cccc(C(F)(F)F)c3)cs2)no1 | -10 | 103 | 102 | -9
O=C(NCCN1CCOCC1)c1ccc2c(=O)n3c(nc2c1)CCCCC3 | 8 | 101 | 102 | 2
COc1ccc2oc(C)c(C(O)c3cc4ccccc4o3)c2c1 (configuration not stated) | -18 | 108 | 107 | /
CCCc1ccc(-c2ccc(/C=C/C(=O)O)cc2)nc1 | -55 | 101 | 103 | -18
CC(CC(=O)Nc1nc2ccccc2[nH]1)c1ccccc1 (configuration not stated) | -7 | 105 | 109 | -27
Clc1cccc(NCc2ccco2)c1 | 0 | 102 | 105 | -5
CC(C)C(NC(=O)Cc1ccccc1)C(=O)N1CCN(S(=O)(=O)c2cccc(Cl)c2)CC1 (configuration not stated) | -31 | 101 | 100 | -1
COc1ccc(CNc2oc(C)nc2C#N)cc1 | -5 | 100 | 100 | -9
CCCNC(=O)c1c(OC)cccc1OC | 21 | 100 | 99 | -7
Cc1ccc(C#N)cc1 | 5 | 106 | 99 | 13
CC1(C)CC(CCNC(=O)c2ccccc2C(=O)O)(Cc2ccccc2)CCO1 (configuration not stated) | -7 | 106 | 103 | /
O=C1c2ccccc2C(=O)N1CNN1CCCc2ccccc21 | -4 | 108 | 102 | /
O=C(CSc1ccc(-c2ccco2)nn1)N1CCCc2ccccc21 | -27 | 106 | 97 | 25
COc1ccc(-n2c(SCC(=O)c3ccc(Cl)cc3)nc3ccccc3c2=O)cc1 | -35 | 106 | 106 | -2
O=C(/C=C/c1ccccc1)N1CCc2ccccc21 | -28 | 102 | 100 | 16
CCN1CCN(c2cc(C)c3cc(NC(=S)N4CCOCC4)ccc3n2)CC1 | -5 | 100 | 101 | 10
CC(C)NC(=O)c1ccccc1NS(=O)(=O)c1ccc(F)cc1 | / | 105 | 108 | -21
CC1=NC(=O)/C(=C\c2ccc(O)cc2)N(C)N1c1ccccc1 | 6 | 103 | 98 | /
CCC(C(=O)O)n1nc(C)c2sc3ccccc3c2c1=O (configuration not stated) | 5 | 104 | 107 | -5
N#CC(Cc1ccccc1)Sc1ccccc1 (configuration not stated) | / | 101 | 96 | -11

Going on with the list.
Molecule	Mtb MenB inh	Polio RdRp inh	Polio RdRp inh intensity	MbtI inh
O=C(CSc1nc2ccccc2o1)Nc1ccc(N2CCOCC2)c(Cl)c1	-15	99	102	-7
CCNC(=S)N1CCn2cccc2C1c1ccccc1F (configuration not stated)	-25	100	101	-19
Cc1cc(C(=O)CN2C(=O)CNC2=O)c(C)n1-c1ccccc1	-9	96	96	6
O=C(NC1CC1)c1ccc2c(c1)CCN2S(=O)(=O)c1ccccc1	-23	101	105	-5
C=CCn1cc(C=C2C(=O)N(C)C(=S)N(C)C2=O)c2ccccc21	-7	102	110	12
N#C/C(=C/c1ccc(-c2ccc(Br)cc2)o1)C(=O)NC1CCCCC1	-32	99	106	-19
O=C1c2ccccc2C(=O)N1CN1CCN(Cc2ccccc2)CC1	-22	103	100	-4
O=C(c1cc2nc(-c3ccco3)cc(C(F)(F)F)n2n1)N1CCSCC1	-5	103	112	/
COc1cccc(C(Nc2ccccn2)c2oc(CO)cc(=O)c2O)c1 (configuration not stated)	3	101	103	68
COCCn1c(O)c(/C=N/Nc2nc(C)cc(C)n2)c(=O)[nH]c1=S	-87	93	215	6
Cc1occc1C(=O)Nc1ccc(C(=O)N2CCCCC2)cc1	-8	102	104	-9
O=C(NCc1cccnc1)Nc1c[nH]c2ccccc2c1=O	1	100	100	100
CN(C)Cc1ccccc1CNC(=O)c1ccc(N(C)C)cc1	-8	100	108	-14
CSc1nc(=O)n(Cc2ccccn2)c2c1CCC2	-21	/	/	20
CC(NC(=O)c1cccnc1)C(c1ccccc1)N1CCN(C)CC1 (configuration not stated)	/	103	99	-3
CC1c2cccn2CCN1C(=O)CCn1ccnc1 (configuration not stated)	-16	109	115	3
COc1cc(C2Nc3ccccc3S2)cc(OC)c1OC (configuration not stated)	6	99	105	74
Cc1ccc(Cn2c3ccccc3n3cc(C)nc23)cc1	-16	102	107	-17
O=C(c1ccc(NS(=O)(=O)c2ccc(Cl)s2)cc1)N1CCN(C(=O)c2cccs2)CC1	-2	101	98	18
Cc1ccc(C(=O)Nc2cc3[nH]c(=O)[nH]c3cc2C)cc1	12	99	106	6

Quoted from the entries so far, two compounds:
Molecule	Mtb MenB inh	Polio RdRp inh	Polio RdRp inh intensity	MbtI inh
Cc1occc1C(=O)Nc1ccc(C(=O)N2CCCCC2)cc1	-8	102	104	-9
O=C(NCc1cccnc1)Nc1c[nH]c2ccccc2c1=O	1	100	100	100

The results go on.
Molecule	Mtb MenB inh	Polio RdRp inh	Polio RdRp inh intensity	MbtI inh
O=C(/C=C/c1ccco1)OC(C(=O)c1ccccc1)c1ccccc1 (configuration not stated)	/	104	106	2
NC(=O)COC(=O)C1CCN(S(=O)(=O)c2ccccc2C(F)(F)F)CC1	-2	104	109	2
CCOC(=O)C1=C(CNc2ccc(OCC)cc2)NC(=O)NC1c1ccccc1 (configuration not stated)	-29	102	104	1
Cc1cc(NC(=O)C2CCCCC2)nc2c1c(=O)oc1ccccc12	-21	102	108	-10
O=C(Cn1ncc2c(Cl)cccc21)NCCN1CCCC1	13	102	103	21
COCCCn1c(Sc2ccc(S(=O)(=O)N3CCCC3)cn2)nnc1-c1ccccc1Cl	-5	/	/	8
CCc1ccc(-c2ccc(=O)n(CC(=O)N3CCCCC3)n2)cc1	-5	100	103	94
CCc1cccc(CC)c1N(COC)C(=O)CN1c2ccccc2NC1CC (configuration not stated)	-28	103	103	-4
CCC(CC)NC(=O)CSc1nc2c(cnn2-c2cccc(C)c2)c(=O)[nH]1	-7	98	105	6
c1ccc(-c2nc(-c3cccs3)[nH]c2-c2ccccc2)cc1	-20	105	109	92
C=CCN1C(=O)c2ccccc2N2C(=O)CCC12C(=O)O (configuration not stated)	-21	97	89	-9
CCn1c2ccccc2c2cc(NC(=O)COc3ccccc3C#N)ccc21	-21	103	112	30
O=C(CN(C(=O)Cn1nnc(-c2cccs2)n1)c1ccc2c(c1)OCCO2)NCC1CCCO1 (configuration not stated)	-71	100	103	7

Entries of single compounds from above. Values in the order: Mtb MenB inh	Polio RdRp inh	Polio RdRp inh intensity	MbtI inh
O=C(CN(C(=O)Cn1nnc(-c2cccs2)n1)c1ccc2c(c1)OCCO2)NCC1CCCO1 (configuration not stated) across the screens: -71	100	103	7
CCc1cccc(CC)c1N(COC)C(=O)CN1c2ccccc2NC1CC (configuration not stated) across the screens: -28	103	103	-4
NC(=O)COC(=O)C1CCN(S(=O)(=O)c2ccccc2C(F)(F)F)CC1 across the screens: -2	104	109	2
Cc1cc(NC(=O)C2CCCCC2)nc2c1c(=O)oc1ccccc12 across the screens: -21	102	108	-10
CCOC(=O)C1=C(CNc2ccc(OCC)cc2)NC(=O)NC1c1ccccc1 (configuration not stated) across the screens: -29	102	104	1

Assay outcomes deposited in PubChem by ICCB-Longwood Screening Facility, Harvard Medical School.
